Source: PubChem (Fisher Drug Discovery Resource Center)
NPYLR7 ag – mosquito NPYLR7 agonism. HEK293T NPYLR7/Galpha15, GCaMP6s calcium fluorescence. activation, % at 10 µM. 270,000 tested, 0.15% active. AID 1259423; in the data active = activation above about 40%;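 also: 0% = vehicle and 100% = reference agonist at the receptor; some compounds past the cut are filed as inactive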
NPYLR7 ag max-min – second read-out of NPYLR7 ag, no call of its own (marks repeat the call); activation, %; measured here: Max-Min RFU normalised activation; some inactives read as strong as hits;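 span of the calcium signal over five minutes; 0% = vehicle and 100% = native peptide agonist; compound fluorescence can raise it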
An asterisk follows results filed as active; & = joins results of further samples.

SMILES,NPYLR7 ag,NPYLR7 ag max-min
N#CCSc1nnc2sc3ccccc3n12,9,6
Cc1nnc2n1CCN(C(=O)c1cc(Cl)c(Br)[nH]1)C2,7,1
CCOCC(=O)Nc1ccc2c(c1)C(=O)N(C)c1cc(C)ccc1O2,9,4
COc1ccc(-c2nc3nc(-c4ccc(O)c(OC)c4)cc(C(=O)O)c3[nH]2)cc1,3,2
CC(Sc1cccs1)C(=O)Nc1ncccn1 (stereo not given),-5,-8
CC(C)c1cc(CN(C)C(=O)c2cnn3ccn(C)c23)on1,8,4
Cc1ccc(C)c(OCc2cc(C(=O)N(C)Cc3ccc(-n4cccn4)cc3)no2)c1,2,-2
COc1ccc(-c2cn3c(CCC(=O)N4CCC(C(N)=O)CC4)csc3n2)cc1,5,3
Nc1nc(SCC(=O)Nc2nccs2)[nH]c(=O)c1NC(=O)c1ccccc1,-1,-5
Cc1cc(=O)n(C(C)C(=O)NCc2ccccc2)c2c1c(C)nn2-c1ccccc1 (stereo not given),0,-4

The list continues:
SMILES,NPYLR7 ag,NPYLR7 ag max-min
N#CCCNC(=O)c1cc(N2CCN(Cc3ccccc3)CC2)nc2ccccc12,37,31
C=CCN(Cc1nc2sc(C(C)C)cc2c(=O)[nH]1)CC(O)COc1ccccc1 (stereo not given),19,20
CCc1nc(CN(C)C(=O)Nc2cc3c(cc2Br)OCCO3)cs1,-1,-3
CN1CCC(CNC(=O)C2CCCCC2)(N2CCCCC2)CC1,3,2
COC(=O)[C@H](C(C)C)N(C)C(=O)c1cccc2[nH]c(-c3ccc(O)cc3)nc12,0,16
CCCN(Cc1c(-c2ccccc2)noc1N(C)C(C)C)S(=O)(=O)c1ccc(C)cc1,9,15
Cc1cnc(CNC(=O)c2c(C)noc2-c2ccco2)cn1,-8,-4
COc1ccccc1-c1nc(CSc2nc(C)c(Cc3ccccc3)c(=O)[nH]2)c(C)o1,2,1
O=C(NCCNc1ccc(Nc2cccnc2)nn1)c1ccc(C(F)(F)F)cc1,-2,-3
CC(=O)O[C@]1(C(C)=O)CCC2C3C=C(Cl)C4=CC(=O)CC[C@]4(C)C3CC[C@@]21C (stereo not given in full),-2,-9

The results go on:
SMILES,NPYLR7 ag,NPYLR7 ag max-min
COc1ccc(-n2nnc3c(=O)n(CC(=O)N4CCCCCC4)cnc32)cc1OC,8,7
CC1CC(C)CN(S(=O)(=O)c2ccc(C(=O)Nc3nc(C#N)c(C#N)[nH]3)cc2)C1 (stereo not given),1,-4
CCOc1ccc(-c2cc(C(=O)NCCc3ccc(OC)cc3)c3ccccc3n2)cc1,4,3
COc1ccc(NS(=O)(=O)c2ccc(Nc3ccc(F)cc3)c([N+](=O)[O-])c2)cc1,-3,-4
CCOC(=O)CSc1nc2sc(C)c(C)c2c(=O)n1Cc1ccco1,-2,-2
Cc1c2c(nc3cc4c(cc13)OCO4)-c1ccccc1OC2,10,28
COCC(=O)N(Cc1ccc2c(c1)OCO2)Cc1c(-c2ccccc2)noc1N1CCCC1,7,5
Cc1nnc(SCc2ccc(F)cc2Cl)s1,-1,-1
Cc1ccc(-c2nc(C(=O)Nc3ccccc3C(=O)N(C)C)cs2)o1,2,7
Cc1ccc(-c2nc3cc(C)ccn3c2NC(=O)COCc2ccccc2)cc1,-3,4

The list goes on.
SMILES,NPYLR7 ag,NPYLR7 ag max-min
O=C(c1cn(-c2ccccc2)nn1)N1CCCCC1CCn1cccn1 (stereo not given),3,0
CC(C)(C)NC(=O)NC1CCN(c2ccccc2C(=O)NCCc2cccs2)CC1,-4,11
O=C1c2ccccc2C(=O)N1CNc1ccc(O)cc1,7,11
Cc1ccc(C(=O)N(CCO)Cc2ccccc2C)c(F)c1,4,0
COc1ccc(Cl)cc1NC(=O)c1nn2c(C(F)(F)F)cc(-c3ccccc3)nc2c1Cl,-12,-19
COCCNCC(=O)N(Cc1ccc(F)cc1)Cc1cccs1,16,13
N#CCc1ccc(NC(=O)N2CCN(C(c3ccccc3)c3ccc(Cl)cc3)CC2)cc1 (stereo not given),23,22
COCCNC(=O)Cn1nc2c(c1NC(=O)C(C)Oc1ccccc1)CSC2 (stereo not given),-2,0
Cc1cccc2nc(CN3CCCC3c3cccs3)cc(=O)n12 (stereo not given),9,10
CSc1ncccc1C(=O)OCc1cc(-c2ccc3c(c2)OCCO3)on1,-2,-3

Quoted at random: 5 records from the list, in no set order.
SMILES,NPYLR7 ag,NPYLR7 ag max-min
COC(=O)[C@H](C(C)C)N(C)C(=O)c1cccc2[nH]c(-c3ccc(O)cc3)nc12,0,16
COc1ccccc1-c1nc(CSc2nc(C)c(Cc3ccccc3)c(=O)[nH]2)c(C)o1,2,1
COCCNC(=O)Cn1nc2c(c1NC(=O)C(C)Oc1ccccc1)CSC2 (stereo not given),-2,0
Cc1nnc(SCc2ccc(F)cc2Cl)s1,-1,-1
CCCN(Cc1c(-c2ccccc2)noc1N(C)C(C)C)S(=O)(=O)c1ccc(C)cc1,9,15

(listing goes on)
SMILES,NPYLR7 ag,NPYLR7 ag max-min
CC(Cc1ccc(F)c(Br)c1)C(=O)O (stereo not given),5,1
N#CC(OC(=O)c1ccccc1)c1ccccc1 (stereo not given),-5,-11
CNS(=O)(=O)Cc1ccc(C#N)cc1,0,8
CN(C)S(=O)(=O)N(CC(N)=O)c1ccccc1,2,0
O=C1Nc2c(I)cccc2C1=O,4,2
COc1cccc(OC)c1C(=O)NCc1nnc(SCc2ccc(F)cc2)n1-c1cc(Cl)ccc1Cl,4,13
COCCCNC(=O)c1ccc2sc([C@@H]3O[C@H](CO)[C@H](O)[C@H](O)[C@H]3O)nc2c1,1,-3
COCCN(Cc1cnn(C)c1)C(=O)C1CC2(CCNCC2)CN1 (stereo not given),18,5
COC(=O)c1ccc(C(=O)NCc2ccc(-c3ncc(-c4ccc(OC)cc4)[nH]3)cc2)cc1,-9,-14
CC(C)c1cc(C(=O)N(C)Cc2ccccc2-n2cccn2)no1,10,3

New compounds follow.
SMILES,NPYLR7 ag,NPYLR7 ag max-min
Cn1nccc1CNC(=O)C1CC1c1cc(Cl)cc(Cl)c1 (stereo not given),-23,-22
CC(C)c1ncc(C(=O)N2CCCC3(C2)C(=O)Nc2ccccc23)c(=O)[nH]1 (stereo not given),14,9
Cc1cc(=O)[nH]c(Nc2nc3ccccc3o2)n1,-1,-10
CC(C)C1C(=O)NCCN1C(=O)c1cc(=O)c2ccccc2[nH]1 (stereo not given),8,6
COc1ccc(OC)c(C2CC(c3ccco3)=NN2S(C)(=O)=O)c1 (stereo not given),-1,-4
COc1ccccc1C(C)N(C)Cc1csc(-c2c(C)c(C)nn(C)c2=O)n1 (stereo not given),-1,-5
COc1cccc(CC2(CO)CCN(S(=O)(=O)N(C)C)CC2)c1,1&14,-3&8
Cc1cccc(NC(=O)N2CCN(c3nc(-c4ccc(Cl)cc4)nc(C)c3C)CC2)c1C,15,25
CCOC(=O)Cc1csc(N=Cc2nc(-c3ccccc3F)oc2O)n1,-2,-10
CC1CCCN(S(=O)(=O)c2ccc3c(c2)nc(SCC(=O)N2CCOCC2)n3CC2CCCO2)C1 (stereo not given),5,5

The results go on:
SMILES,NPYLR7 ag,NPYLR7 ag max-min
CCCSc1nc(N)c(NC(=O)c2ccc(OCC)cc2)c(=O)[nH]1,-4,-4
CN(CCCSc1ccccc1)Cc1cc2ccc(F)cc2[nH]c1=O,21,4
O=c1ccc([N+](=O)[O-])ccc1Nc1ccccn1,3,-1
CCN(CC)C(=O)Cn1cc(C(=O)N(Cc2ccccc2)Cc2scnc2C)nn1,4,2
O=C(NCCCN1CCOCC1)c1cc2n(n1)CCN(Cc1ccc(F)cc1)C2=O,17,17
N#CCN(CC#N)CC(=O)Nc1cccc(Oc2ccccc2)c1,16,10
C#CCOCC(O)CN(Cc1ccsc1)Cc1ccco1 (stereo not given),18,25
Cc1nc2ccccn2c(=O)c1NC(=O)COc1ccccc1,-8,-7
COc1ccc2c(c1)CC(NCCN(C)S(C)(=O)=O)CC2 (stereo not given),7,3
CC(C)NC(=O)CCC1CCCCC1,13,12

(more compounds)
SMILES,NPYLR7 ag,NPYLR7 ag max-min
Cc1cc(C(F)(F)F)n(-c2nc(C(=O)N3CC[C@H](O)[C@@H](O)C3)cs2)n1,6,5
O=C(Cc1ccc(S(=O)(=O)N2CCCC2)s1)NCCC(=O)N1CCCC1,0,7
O=C1C[C@H]2CC[C@@H](CN1)N2C(=O)CCn1nnc(-c2ccccc2)n1,-1,24
COc1ccc(CN(Cc2ccccc2)C(=O)C(C)SC)cc1 (stereo not given),7,5
CNC(=O)c1ccc(CN(C)c2snc(Cl)c2C#N)cc1,9,3
COc1cccc(CS(=O)(=O)c2ncc(CN(CC3CC3)C(=O)NC(C)(C)C)n2CC(C)C)c1,18,8
CC1(C)CC(C)(O)P(=O)(c2ccccc2)O1 (stereo not given),-5,-15
Cc1cc(C(F)(F)F)nc(CCNC(=O)CC2COCCN2)n1 (stereo not given),14,15
COc1cc(C=C2C(=O)N(C)C(=O)N(C)C2=O)ccc1O,3,1
CC(=O)N1CCN(C(=O)c2cc(C(C)C)n(-c3nc4ccccc4s3)n2)CC1,11,3

Next part:
SMILES,NPYLR7 ag,NPYLR7 ag max-min
Cc1ccccc1Cn1c(N2CCNCC2)nc2c1c(=O)[nH]c(=O)n2C,-1,22
CC(C)NC(=O)CN1CCN(Cn2c(=S)oc3ccccc32)CC1,-7,-6
COc1ccc(Cl)cc1Cn1c(C)c(C(=O)NC2CC2)sc1=O,4,1
O=C(c1ccco1)N1CCCC2(CCCCC2)C1,6,0
CN(C)C(=O)CSc1nnc(-c2cccs2)n1C,0,-2
O=C1CNC(=O)N1CCN1CCN(CC(F)(F)F)c2ccccc21,4,2
Cc1ccc(S(=O)(=O)NCc2nnnn2C2CCCCC2)cc1,1,-2
Cc1cc(Br)ccc1NC(C)C(=O)N1CC(C)OC(C)C1 (stereo not given),6,2
Cc1nc(SCC(=O)c2c(N)n(C3CC3)c(=O)[nH]c2=O)n(C2CCCCC2)c1C,0,1
CC1=NC2=C(C(=O)CC(c3ccccc3)C2)C(c2ccc([N+](=O)[O-])cc2)C1C(=O)OCCOc1ccccc1 (stereo not given),12,13

Other structures follow:
SMILES,NPYLR7 ag,NPYLR7 ag max-min
O=C1CC(c2cccc3nonc23)c2cnn(Cc3cccs3)c2N1 (stereo not given),23,7
CCSc1nnc(NC(=O)CC23CC4CC(CC(Br)(C4)C2)C3)s1,0,-4
CN(C)NC(=S)NC1CCCCC1,-6,-12
COc1ncccc1C(=O)NCc1cccnc1-n1cnc2ccccc21,2,1
NC(=O)c1c(NC(=O)c2csc3c2CCCC3)sc2c1CCCC2,0,-3
Cc1cc(C)c(NC(=O)CSc2ncc(S(=O)(=O)c3ccc(C(C)(C)C)cc3)c(=O)[nH]2)c(C)c1,3,0
O=C(OCc1cc(-c2ccc(F)cc2F)on1)c1ccco1,-1,-2
c1ccc(CCNc2cc(-c3ccc4ccccc4c3)nc3ccnn23)nc1,-5,-9
Cc1ccc(CNC(=O)CCC(=O)Nc2nnc(C3CC3)o2)cc1,-2,-4
CCn1nc(C)c(C(=O)NCc2ccc3c(c2)n(C)c(=O)n3C)c1C,10,6

Continuation.
SMILES,NPYLR7 ag,NPYLR7 ag max-min
Cc1nc(CN2C(=O)C(C)(C)ON=C2c2cccc(F)c2)cs1,3,5
CCOCCn1ccc2c(NC(=O)c3ccc(Cl)c(Cl)c3)c(OC(=O)N(CC)CC)ccc21,-2,-4
Cc1cc(C)cc(CC(=O)N2CCC2(C)C(=O)NS(=O)(=O)c2c(C)noc2C)c1 (stereo not given),2,2
Clc1ccc(-c2nc(CN3CCN(c4ncccn4)CC3)cs2)cc1,4,7
CCOc1ccc(-c2cc3c(=O)n(CC(=O)NCc4cccc(OC)c4)ncn3n2)cc1,-12,-13
Cc1ccc(CN(C)C(=O)C2CCC(=O)N(CCN3CCOCC3)C2)o1 (stereo not given),10,8
Clc1cc2c(cc1CN1CCN(c3nccc(Nc4ccc5ncsc5c4)n3)CC1)OCO2,0,8
O=c1oc2c3c(ccc2cc1-c1ccc(Cl)cc1)OCN(CCCN1CCOCC1)C3,21,31
COc1cccc(CN2CCN(Cc3ccc(-n4cccn4)cc3)CC2=O)c1,4,1
COc1ccc(CCNC(=O)c2ccccc2N2CCC(NC(=O)c3cccc(Br)c3)CC2)cc1,22,14

2 of these compounds, set out differently:
Values in the order – NPYLR7 ag | NPYLR7 ag max-min
- C#CCOCC(O)CN(Cc1ccsc1)Cc1ccco1 (stereo not given)
    18 | 25
- Cc1nc2ccccn2c(=O)c1NC(=O)COc1ccccc1
    -8 | -7

Next records follow:
SMILES,NPYLR7 ag,NPYLR7 ag max-min
Cc1ccc(S(=O)(=O)N2CCN(C(=O)c3cc(C)[nH]n3)CC2)c(C)c1,0,-2
CC1OC(Nc2ccc(Cl)cc2)C(O)C(O)C1O (stereo not given),-3,-6
O=C(O)CCn1c(SCCc2ccccc2)nc2ccccc21,1,-2
CC(C)C1CC(CCN2C(=O)CCC2=O)(c2ccccc2)CCO1 (stereo not given),-2,-4
O=C(Cc1ccccc1)NCc1nnc(SCC(=O)N2CCc3ccccc32)n1-c1ccc(Br)cc1,-7,-1
O[C@@H]1CN(c2nnnn2-c2ccccc2)CC[C@H]1c1ccc2c(c1)OCO2,0,-2
CC(C(=O)N1CCN(C)C2(CCN(C)CC2)C1)n1cnc2ccccc21 (stereo not given),5,7
Cc1cccn2c(=O)c(C=C3SC(=S)N(CC4CCCO4)C3=O)c(NCC3CCCO3)nc12 (stereo not given),3,4
CCCC(Sc1nnc(-c2ccccc2F)n1-c1ccccc1C)C(=O)OCC (stereo not given),-10,-7
CCCCNC(=O)C1(C)CCCCN1C(=O)c1ccc2sccc2c1 (stereo not given),5,3
CCCn1c(=O)c(C(=O)NN)c(O)c2ccccc21,4,7
Cc1[nH]n(-c2ccc([N+](=O)[O-])cc2)c(=O)c1N=Nc1ccccc1Cl,-4,-9

These rows are one share of the data. The share of hits here may be higher or lower than overall.
